# High-throughput results: PubChem, National Center for Advancing Translational Sciences (NCATS)
# VDR inhibitor: blocks the human vitamin D receptor; P11473; VDR-SRC2-3 peptide fluorescence polarization, 2 h; Potency, µM, for inactives: max response, negative = inhibition, usual class: inhibitors; 400,000 tested, 0.93% active; AID 504847; active means well fitted inhibition curve with a large enough effect; inconclusive means small, poorly fitted or top-dose-only effect, or another doubt; inactive means no such curve, though single readings can be large or run the other way; further: series mostly up to about 120 µM
# Target sequence (P11473 whole entry, looked up): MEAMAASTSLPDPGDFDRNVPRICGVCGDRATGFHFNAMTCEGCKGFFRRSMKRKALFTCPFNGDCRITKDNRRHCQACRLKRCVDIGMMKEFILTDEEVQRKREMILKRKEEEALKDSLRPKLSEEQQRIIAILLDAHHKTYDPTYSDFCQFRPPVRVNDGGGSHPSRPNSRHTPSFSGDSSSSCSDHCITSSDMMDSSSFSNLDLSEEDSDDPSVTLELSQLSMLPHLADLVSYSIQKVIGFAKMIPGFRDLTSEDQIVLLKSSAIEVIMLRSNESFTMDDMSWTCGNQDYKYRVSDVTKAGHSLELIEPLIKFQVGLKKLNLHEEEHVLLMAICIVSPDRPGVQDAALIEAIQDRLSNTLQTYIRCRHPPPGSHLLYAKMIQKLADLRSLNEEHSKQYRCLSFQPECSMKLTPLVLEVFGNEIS
#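 Measured by FP: displacement of SRC2-3 coactivator peptide from VDR by library compounds, following a two-hour ambient incubation.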
# An asterisk follows results filed as active; u = inconclusive; & = joins results of further samples; [ ] = another dose, or the depositor's remark. On the % scale 0 is the no-effect control and ±100 the full control effect; potency means the concentration at half of the fitted maximal effect. An excerpt; count on the stated rates, not on these rows.
Structure	VDR inhibitor
CCCCN(C(=O)COC(=O)c1ccccc1)c1c(N)n(CCC)c(=O)[nH]c1=O	4.6%
Cc1nnc2n1N=C(c1ccc(OC(F)F)cc1)C(C)S2 (centres undefined)	-0.1%
CCCCc1c(O)nc(SCC(=O)N2CCOCC2)n(-c2ccc(OC)cc2)c1=O	3.8%
Nc1nc2nn(-c3ccccc3)nc2c(=O)[nH]1	-6.2%
O=C(Nc1ccccc1)c1cc(-n2cnnc2)ccc1Cl	2.1%
O=C(Nc1ccc(F)c(F)c1)c1cc(S(=O)(=O)N2CCc3ccccc32)ccc1F	3.8%
Cc1ccc(C(=O)C2C(=O)c3ccccc3C2=O)cc1	9.7%
CC(NCc1ccc(F)cc1)C(=O)NC1CCCCC1 (centres undefined)	16.1%
O=C(Oc1ccccc1)c1cccnc1Oc1ccccc1	-5.1%
CN(c1ccccc1)S(=O)(=O)c1ccc(NC(=S)NC(=O)C2CC2)cc1	-19.0%
COc1ccc(NC(=S)N2CCC(NC(=O)c3ccc(F)cc3)CC2)cc1	1.1%
CCOC(=O)c1c(C)[nH]c(C(=O)OCC(=O)NC(C)C)c1C	-7.7%
CCCCNC(=O)NNC(=O)C1CC1(c1ccccc1)c1ccccc1 (centres undefined)	-0.4%
COC(=O)c1cc2c(s1)-c1ccc(OC)cc1CC2	-5.3%
Cc1nn(CCc2n[nH]c(=S)n2-c2ccc(F)cc2)c(C)c1[N+](=O)[O-]	-2.6%
O=c1cc(CO)occ1OCc1cccc(F)c1	-4.6%
CCOC(=O)[C@@H]1[C@H]2COc3ccc(Br)cc3[C@@H]2N2C(=O)N(c3cccc(F)c3)C(=O)[C@@]12C	-14.8%
Cc1ccc(Oc2ccccc2)c(NC=O)c1	-9.4%
CCOc1cc(/C=N/NC(=O)c2cc(C)n(-c3ccc(F)cc3)c2C)ccc1O	-9.3%
CC(C)CCN1CCN=C1Nc1ccccc1	16.5%
Cc1ccccc1-c1nc(CNC(=O)NC2CCCCC2)c(C)o1	1.3%
CCS(=O)(=O)Nc1cccc(C2=NN(S(=O)(=O)CC)C(c3cccs3)C2)c1 (centres undefined)	-13.6%
C=CCOC(=O)C(=C)C	10.1%
CC(=O)Nc1ccc(N(C(=O)c2cnccn2)C(C(=O)NC2CCCCC2)c2ccc(O)cc2)cc1 (centres undefined)	8.9%
Cc1noc(C)c1S(=O)(=O)Nc1ccc(C(=O)N2CCN(c3cccc(Cl)c3)CC2)cc1	10.9%
O=C(Nc1cccc2ccccc12)N1N=CCC1c1ccccc1 (centres undefined)	7.1%
O=c1oc(-c2cccc(C(F)(F)F)c2)nn1-c1ccc(C(F)(F)F)cn1	-2.2%
COc1ccc(C(=O)Nc2cccc(/C(C)=N\NC(=O)c3ccoc3C)c2)cc1OC	14.0%
S=C(Nc1ccccc1)Nc1cccc(Br)c1	-10.7%
CCn1nc(C(=O)OCC(=O)NCC(C)C)c2ccccc2c1=O	6.0%
COc1ccc(NC(=O)c2c(NC(=O)Cc3ccccc3)sc3c2CCCC3)cc1	-17.0%
O=C(Nc1ccc2c(c1)OCCO2)C1CCCN(S(=O)(=O)Cc2ccccc2)C1 (centres undefined)	-3.8%
Cc1cc(NC(=O)COC(=O)CCNS(=O)(=O)c2cccc(C(F)(F)F)c2)no1	11.9%
O=c1oc2cc(Oc3ccc(C(F)(F)F)cc3[N+](=O)[O-])ccc2c2c1CCCC2	-7.1%
COC(=O)C1(C(C)=O)CC2=CC[C@H]3C(=O)N(c4ccccc4)C(=O)[C@H]3[C@@H]2Cc2ccccc2[C@@H]1C[N+](=O)[O-] (some centres undefined)	4.7%&-19.3%
OC(COCc1ccc(Cl)cc1)CN1CCc2ccccc2C1 (centres undefined)	-15.3%
C(=C\c1ccccc1)/C=N/N1CCN(c2ccccn2)CC1	5.2%
Cc1ccccc1Nc1nc(N)nc(COC(=O)c2cccn2C)n1	4.3%
CC(=O)NC1(C(F)(F)F)N=C(c2ccccc2)NC1=O (centres undefined)	-10.5%
O=C(O)CN1C(=O)C(=O)N(Cc2ccc(Cl)cc2Cl)C1=O	-20.5%
O=C(NCc1ccco1)C(C(=O)c1ccccc1)n1ccccc1=O (centres undefined)	2.1%
COc1cccc(NC(=O)C2CCN(C(=O)N3CC(C)Oc4ccccc43)CC2)c1 (centres undefined)	-3.4%
CNC(=S)N(CCO)Cc1cc2cc3c(cc2[nH]c1=O)OCO3	11.5%
CCN(CC(=O)Nc1c(F)cccc1F)C(=O)CCc1nc2sc3c(c2c(=O)[nH]1)CCCC3	-1.8%
Cc1ccsc1C(=O)OCC(=O)N1CCOCC1	15.7%
COc1ccc(-n2nnc3c(=O)n(CC(=O)N4CCCCC4)cnc32)cc1	-7.7%
CCOC(=O)/C(C#N)=C/c1cn(CCC(=O)O)nc1-c1cccc(Cl)c1	-3.6%
CCCOC(=O)CSC1=C(C#N)C(c2ccc3c(c2)OCO3)CC(=O)N1 (centres undefined)	-6.3%
CCCCC(=O)NNC(=S)NC(=O)c1ccc([N+](=O)[O-])cc1	u
Cc1c(S(=O)(=O)N2CCN(C(c3ccccc3)c3ccccc3)CC2)c(=O)n(C)c(=O)n1C	1.6%
CCC(C)NC(=O)CO/N=C/c1ccccc1OC(F)F (centres undefined)	3.5%
CC(C)C[C@@H](CC(=O)N[C@@H](CCCN)CC(=O)N[C@@H]1CCNC[C@H]1C(=O)N[C@H](CC(=O)N[C@@H](CCC(=O)O)CC(=O)O)Cc1c[nH]c2ccccc12)NC(=O)[C@@H]1CNCC[C@H]1N	1.3%
CC(NC(=O)CCCN1C(=O)CCn2nc(-c3cn(C)c4ccccc34)cc21)c1ccccc1 (centres undefined)	2.3%
O=C(Nc1ccccc1)Nc1ccc2ncoc2c1	-4.5%
Clc1ccc(OCCCN2CCCCC2)c(Br)c1	-2.6%
CCc1ccc2nc(NC(=O)CCCc3cccs3)sc2c1	-12.2%

# Exported as labelled records: 4 of the compounds above
Molecule: Clc1ccc(OCCCN2CCCCC2)c(Br)c1
  VDR inhibitor: -2.6%

Molecule: O=C(Nc1cccc2ccccc12)N1N=CCC1c1ccccc1 (centres undefined)
  VDR inhibitor: 7.1%

Molecule: CCCCc1c(O)nc(SCC(=O)N2CCOCC2)n(-c2ccc(OC)cc2)c1=O
  VDR inhibitor: 3.8%

Molecule: CCCCC(=O)NNC(=S)NC(=O)c1ccc([N+](=O)[O-])cc1
  VDR inhibitor: u

# (listing goes on)
Structure	VDR inhibitor
O=C(CCCN1C(=O)c2cccc3cccc(c23)C1=O)N1CCN(c2ccccc2)CC1	7.9%
Cc1cccc(-n2nnc3c(=O)n(Cc4ccccn4)cnc32)c1	-10.7%
O=C(CN1CCN(c2ccc(F)cc2)CC1)Nc1ccccc1Br	1.5%
CN(c1ccc([N+](=O)[O-])cc1/C=N/NC(=O)COc1ccccc1)C1CCCCC1	8.0%
COCc1cc(CN2CCN(Cc3ccsc3)C(CCO)C2)ccc1OC (centres undefined)	10.1%
N#CC1=C(S)N(c2ccccc2)C(c2ccc(-c3ccccc3Cl)o2)NC1=O (centres undefined)	39.8µM*
Cc1cc(C[n+]2cc(Cl)ccc2N)c2ncccc2c1	-14.5%
CN(C(=O)Nc1ccccc1)C1CCCc2ccccc21 (centres undefined)	5.5%
O=c1cc2c(nn1Cc1ccccc1)-c1ccccc1CC2	-1.3%
COc1ccc(NC(=O)CCc2c(C)nn(-c3ccc(N4CCOCC4)nn3)c2C)cc1Cl	16.9%
CCn1c(SCC(=O)Nc2cc(C)on2)nnc1-c1cccnc1	-0.1%
CCn1c(CSCc2ccc(Cl)cc2)n[nH]c1=S	-5.2%
CCNc1nc(Cl)nc(NC2CCCCC2)n1	-28.3%
Nc1nc(C23CC4CC(CC(C4)C2)C3)[nH]c(=O)n1	-0.3%
Cc1ccc(N(Cc2cccs2)C(=O)C(C)Oc2ccc(Cl)c(C)c2)cc1 (centres undefined)	1.1%
Cc1ccc(CNC(=O)CN(c2cccc([N+](=O)[O-])c2)S(=O)(=O)c2ccccc2)cc1	0.3%

# The listing continues:
SMILES,VDR inhibitor
COc1ccc2c(c1)nc(SCC(O)c1ccccc1)n2C (centres undefined),-8.4%
Cc1ccc(N=C(NOCc2ccc(Cl)cc2Cl)c2nonc2N)c(C)c1,18.7%
O=C(/C=C/Nc1ccccc1F)c1ccc(Br)cc1,-19.5%
O=C(N/N=C/c1cccs1)c1cncc(Br)c1,-9.6%
Cc1cc(C)c2nc(SCC(=O)N3CC(=O)Nc4ccccc43)c(C#N)cc2c1,-17.7%
CCCNC(=O)N1N=C(c2ccc(N)cc2)c2cc3c(cc2C1C)OCO3 (centres undefined),-21.0%
CC(Sc1nncn1-c1ccccc1)C(=O)Nc1cccc([N+](=O)[O-])c1 (centres undefined),14.8%
COc1ccc(CNc2cc(-c3ccccc3C)ncn2)c(OC)c1,u
O=C(CCC1CCCCC1)Nc1nnc(C(F)(F)F)s1,-28.6%
CCCN(CCC)C(C)C(=O)NCC1(c2ccccc2)CCCC1 (centres undefined),-3.8%
O=C1CC(N2CCSCC2)C(=O)N1c1cccc(Br)c1 (centres undefined),-13.0%
O=C(/C=C/c1ccccc1Cl)Nc1nc(-c2cccs2)ns1,7.3%
O=C(NCCCN1CCOCC1)C1Cc2c(ccc3ccccc23)O1 (centres undefined),-21.6%
Cc1nc([N+](=O)[O-])cn1Cc1cccc([N+](=O)[O-])c1,17.8%
COc1ccc(C2c3[nH]c4ccccc4c3CCN2C(=O)Cc2nonc2C)c(F)c1 (centres undefined),-20.9%
CCOC(=O)CSc1nnc(CNC(=O)c2cccs2)n1-c1cccc(C)c1,11.1%
O=C(NCCNS(=O)(=O)c1ccc(Cl)cc1)c1cc(OCC(F)(F)F)ccc1OCC(F)(F)F,-1.8%
COC(=O)Cn1c(CN2CCC(Cc3ccccc3)CC2)nc2c1c(=O)n(C)c(=O)n2C,-25.3%
COC(=O)CCN(c1ccccc1)C(CNS(=O)(=O)c1ccccc1)c1ccccc1 (centres undefined),2.6%
CC(C)Sc1nc(N)nc(-c2cccs2)c1C#N,4.3%
CCN(CC(=O)NC(=O)Nc1ccccc1F)Cc1ccccc1,-9.6%
CCNC(=O)NC(=O)COC(=O)CCCc1nc2ccccc2s1,2.8%
Brc1cccc(OCCCN2CCCCCC2)c1,0.9%
CC1(C)CC(CCNC(=O)c2ccc(-n3cnnn3)cc2)CC(C)(C)N1,-0.6%

# 3 entries already listed, sorted by their value in VDR inhibitor, falling:
SMILES,VDR inhibitor
Cc1cc(NC(=O)COC(=O)CCNS(=O)(=O)c2cccc(C(F)(F)F)c2)no1,11.9%
CCC(C)NC(=O)CO/N=C/c1ccccc1OC(F)F (centres undefined),3.5%
CC1(C)CC(CCNC(=O)c2ccc(-n3cnnn3)cc2)CC(C)(C)N1,-0.6%

# (list continues)
SMILES,VDR inhibitor
CS(=O)(=O)c1ccc(C(=O)N(Cc2ccccc2)c2ccccc2)cc1,-2.8%
Cc1nc2ccc(NC(=O)c3cnc(Cl)c(Cl)c3)cc2s1,9.9%
Cc1ccc(NC(=O)CN2C(=O)S/C(=C\c3cc(C)n(-c4ccc(C(=O)O)cc4)c3C)C2=O)cc1,-8.4%
Cc1ccc(NC(=O)COc2ccc(N(C)S(=O)(=O)c3ccc(F)cc3)cc2)cc1,-10.0%
CC1Cc2cc(S(=O)(=O)CCC(=O)NC3CCCCC3)ccc2N1C(=O)C1CC1 (centres undefined),-0.8%
CN(C)S(=O)(=O)c1ccc(C(=O)OCCN=C2NS(=O)(=O)c3ccccc32)cc1,1.2%
O=C(O)Cn1cc2c(n1)CCCC2,14.9%
COc1cc2c(cc1NC(=O)COc1ccc(Br)cc1C)oc1ccccc12,1.8%
Cc1ccc(NC(=O)C2CCCN2C(=O)Oc2ccccc2)cc1C (centres undefined),-1.2%
COc1c(C(=O)NCCSC(C)(C)C)ccc2ccccc12,-5.7%
CCN(CC)C(=O)/C(=C/c1cccc([N+](=O)[O-])c1)NC(=O)c1ccco1,21.4%
COc1ccc(C(=O)NCC(C)(C)N2CCOCC2)cc1S(=O)(=O)N1CCCC1,-9.1%
CCn1cc(CNC(=O)c2ccc(OC3CCN(Cc4ccccn4)CC3)cc2)cn1,31.4%[activator]
CC1CCCCN1C(=O)Cn1cnc2c1c(=O)n(C)c(=O)n2C (centres undefined),-29.5%
CC(NC(=O)NC(=O)c1ccc(Cl)cc1Cl)C1CC1 (centres undefined),3.4%
Cc1ccc(C(=O)N2CCN(c3ccc([N+](=O)[O-])cc3)CC2)o1,-3.7%
CCn1c(CNc2ccc(Cl)cc2)nnc1SCc1ccc(C)cc1,-0.2%
Fc1cccc(C2NN=C(c3ccccc3)S2)c1 (centres undefined),24.9%
CCOc1ccc(C(=O)N2CCN(c3ccccc3)CC2)cc1,-0.4%
CCOC(=O)c1cccc(NC(=O)CCc2nnc3ccc(N4CCCCC4)nn23)c1,-3.3%
O=C(CC1C(=O)NCCN1Cc1ccc(F)c(F)c1)NCCCn1ccnc1 (centres undefined),9.9%
O=C(CSc1nnc(COc2ccc(Cl)cc2)o1)N1CCCC1,-5.7%
O=C1CC(N2CCC(c3nc4ccccc4[nH]3)CC2)C(=O)N1c1cccc(F)c1 (centres undefined),-10.6%
Cc1ccc2oc(=O)c3cnn(CC(=O)N(CCN(C)C)Cc4ccco4)c3c2c1,-17.4%
CC(C)c1ccccc1NC(=O)COC(=O)c1cc(=O)[nH]c(=O)[nH]1,-4.5%
COc1ccccc1NS(=O)(=O)c1cccc(C(=O)NCC2(N(C)C)CCCCC2)c1,2.3%
CC(C)c1ccc(OCC(=O)Nc2ccc(S(=O)(=O)Nc3ncccn3)cc2)cc1,-12.4%
Cc1ccc(-n2nnnc2-c2cnn(-c3ccc(F)cc3)c2C(F)(F)F)cc1,-13.7%
Cc1ccc(OC(=S)Nc2ccc(O)cc2)cc1,9.8%
